Source: PubChem (several laboratories)
GALR2 ag = GALR2 receptor agonists, primary screen, cell-based; Galanin receptor type 2 (Homo sapiens), O43603; GALR2-expressing cells, agonist activation read-out; activation, %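 (tested at 5 µM)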; 0.48% of 140,000 active;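 active = above mean plus 3 SD of all compounds, about 5% in these data, not always enough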;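 also: 0% = vehicle buffer wells and 100% = reference agonist at full effect; tested in CHO reporter cells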
PKD1 kinase inh = inhibitors of human PKD1 kinase, biochemical, fluorescence polarization; 0.056% of 200,000 active; Serine/threonine-protein kinase D1 (Homo sapiens), Q15139; inhibition, %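 (about 10 µM by stock and volumes)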; PKD1 kinase fluorescence polarization assay; AID 797, 2007;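 active = inhibition of 50% or more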;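 also: controls were vehicle for no effect and a reference inhibitor for full effect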
Target sequence (Q15139 whole entry, looked up): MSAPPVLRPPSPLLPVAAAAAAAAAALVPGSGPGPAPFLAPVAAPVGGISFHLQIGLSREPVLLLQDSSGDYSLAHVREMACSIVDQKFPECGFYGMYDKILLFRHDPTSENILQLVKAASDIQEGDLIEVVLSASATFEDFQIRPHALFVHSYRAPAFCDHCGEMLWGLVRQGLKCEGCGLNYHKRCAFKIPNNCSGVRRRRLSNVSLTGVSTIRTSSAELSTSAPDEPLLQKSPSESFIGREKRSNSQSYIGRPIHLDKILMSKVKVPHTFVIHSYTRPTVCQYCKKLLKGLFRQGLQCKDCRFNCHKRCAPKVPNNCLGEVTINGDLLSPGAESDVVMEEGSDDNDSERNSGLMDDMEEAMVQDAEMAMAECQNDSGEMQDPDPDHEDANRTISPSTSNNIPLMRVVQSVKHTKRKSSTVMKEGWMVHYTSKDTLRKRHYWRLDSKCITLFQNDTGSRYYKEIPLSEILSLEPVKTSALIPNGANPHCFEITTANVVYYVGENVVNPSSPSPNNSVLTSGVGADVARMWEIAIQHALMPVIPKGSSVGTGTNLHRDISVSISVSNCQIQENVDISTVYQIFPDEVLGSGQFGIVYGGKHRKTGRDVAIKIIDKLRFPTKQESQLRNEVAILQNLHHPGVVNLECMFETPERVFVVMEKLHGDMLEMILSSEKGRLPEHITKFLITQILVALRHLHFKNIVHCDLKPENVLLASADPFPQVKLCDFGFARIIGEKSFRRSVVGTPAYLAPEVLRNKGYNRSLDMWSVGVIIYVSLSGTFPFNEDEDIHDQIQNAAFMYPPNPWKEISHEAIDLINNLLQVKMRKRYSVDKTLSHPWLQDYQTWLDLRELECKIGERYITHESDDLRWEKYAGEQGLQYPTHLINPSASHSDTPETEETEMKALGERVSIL
HSV replic up = enhancers of HSV replication in host cells, fold increase, host cell viability; HSV replication augmentation in cells; maximum fold increase; 0.005% of 220,000 active; AID 1956, 2009;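 active = peak rise of 1.5-fold or more in the series; tested in PC3 cells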;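 also: first round at 10 µM; read as green reporter fluorescence; hits show the peak of a series up to 25 µM; 1 = signal of infected wells without compound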
RGS16-Gao HTS = modulators of RGS16 binding to Galphao, primary screen, biochemical, human proteins, multiplexed bead flow cytometry. Regulator of G-protein signaling 16 (Homo sapiens) + Guanine nucleotide-binding protein …. bead-based flow cytometry RGS16-Galphao binding, fluorescence; actives lie on both sides. binding response (% of control), % at 10 µM. 0.38% of 220,000 active;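 active = below 25% or above 175%, edge rows of some plates excepted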;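 also: Galphao activated by GDP with aluminum fluoride before binding; 100% = wells without compound and 0% = beads without RGS; some results beyond the cut were filed as inactive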
Insulin prom inh = inhibitors of insulin promoter-driven GFP, primary screen, imaging, TRM-6 cells (human fetal islet line), eGFP reporter, cell count | reporter expression induced with tamoxifen | inhibition, % at 2 µM | 0.9% of 130,000 active | AID 1273, 2008;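 active = inhibition above the mean plus 3 SD, with well images judged a real hit on visual review, cut at about 60% in these data, passing the limit was not always enough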
Insulin prom inh cell count = also measured in Insulin prom inh; calls as there; normalized cell count, %; measured here: cell count, toxicity; reference of the scale not given here;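 cells exposed to compound for 48 h; stained nuclei by imaging scaled within each plate; lower means fewer cells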
HSV replic up primary fold = recorded beside HSV replic up, whose call it bears; fold increase; compound at 10 µM; measured here: primary screen fold increase 10 uM; tested in PC3 cells;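 GFP signal in the first replicate; 1 = infected wells without compound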
Numbers without * were called inactive.

For C/C(=N\NC(N)=O)c1ccc(-n2ccnc2)cc1 the results were PKD1 kinase inh -4.9, HSV replic up inactive, RGS16-Gao HTS 112.1, Insulin prom inh -14.3, Insulin prom inh cell count 128.1 and HSV replic up primary fold 0.85.
For CCOC(=O)C1=C(C)NC(C)=C(C(=O)OCC)C1C(=O)OCC(=O)N1c2ccccc2CC1C (stereo unspecified) the results were GALR2 ag -2.1, PKD1 kinase inh 3.1, HSV replic up inactive, RGS16-Gao HTS 72.0, Insulin prom inh -17.2, Insulin prom inh cell count 101.3 and HSV replic up primary fold 0.73.
Cc1cccc(NC(=S)N(CCCN2CCOCC2)C(C)c2cc3ccccc3o2)c1 (stereo unspecified) was read as PKD1 kinase inh -2.8, HSV replic up inactive, RGS16-Gao HTS 99.9 and HSV replic up primary fold 1.03.
For O=C1CC(c2ccncc2)c2cc3c(cc2N1)OCO3 (stereo unspecified) the results were GALR2 ag 0.8, PKD1 kinase inh 2.9, HSV replic up inactive, RGS16-Gao HTS 102.9, Insulin prom inh 17.9, Insulin prom inh cell count 177.8 and HSV replic up primary fold 0.94.
For O=C(CNS(=O)(=O)c1ccc(F)c(Cl)c1)N1CCCCCC1 the results were GALR2 ag -0.8, PKD1 kinase inh 5.2, HSV replic up inactive, RGS16-Gao HTS 100.7, Insulin prom inh -16.7, Insulin prom inh cell count 98.3 and HSV replic up primary fold 1.01.
COc1ccc(CCNC(=O)CC(c2ccccc2)c2cccc(C)c2O)cc1OC (stereo unspecified) was read as PKD1 kinase inh -2.1, HSV replic up inactive, RGS16-Gao HTS 97.5 and HSV replic up primary fold 1.01.
COCCNC(=O)/C(C#N)=C/c1c(F)cccc1Cl was read as PKD1 kinase inh -1.8, HSV replic up inactive, RGS16-Gao HTS 95.2 and HSV replic up primary fold 0.9.
`CN1c2ccccc2-c2nc3ccccc3n2C1c1cccs1` (stereo unspecified) gave GALR2 ag -1.0, PKD1 kinase inh 1.8, HSV replic up inactive, RGS16-Gao HTS 92.9, Insulin prom inh -10.8, Insulin prom inh cell count 165.8 and HSV replic up primary fold 1.01.
For Cn1nnnc1SCSc1nnnn1C the results were GALR2 ag -1.3, PKD1 kinase inh 7.1, HSV replic up inactive, RGS16-Gao HTS 101.1, Insulin prom inh inactive, Insulin prom inh cell count 50.8 and HSV replic up primary fold 0.89.
For COc1ccccc1NC(=O)c1cc(Cl)nc2ccccc12 the results were HSV replic up inactive, RGS16-Gao HTS 99.9 and HSV replic up primary fold 1.03.
Screening Cc1ccc(NC(=O)C2(c3cccs3)CCOCC2)cc1C returned GALR2 ag -1.9, PKD1 kinase inh 3.3, HSV replic up inactive, RGS16-Gao HTS 105.5, Insulin prom inh 23.3, Insulin prom inh cell count 76.2 and HSV replic up primary fold 0.95.
C[C@@H]1CC[C@@]2(O[C@H](CCO)C[C@@H](O)[C@@H]2O)O1 was read as GALR2 ag -0.6, PKD1 kinase inh -4.6, HSV replic up inactive, RGS16-Gao HTS 102.3 and HSV replic up primary fold 0.95.
For CC1CN(C(=O)/C=C/c2ccccc2[N+](=O)[O-])CC(C)O1 (stereo unspecified) the results were PKD1 kinase inh -4.2, HSV replic up inactive, RGS16-Gao HTS 110.6 and HSV replic up primary fold 1.06.
Screening COc1ccc(CN(C)CC(=O)Nc2ccccc2C(F)(F)F)cc1 returned PKD1 kinase inh 0.9, HSV replic up inactive, RGS16-Gao HTS 99.7 and HSV replic up primary fold 0.94.
Screening CC(C)[C@H](NC(=O)c1ccccc1Cl)C(=O)OCc1cc([N+](=O)[O-])cc2c1OCOC2 returned GALR2 ag -0.8, PKD1 kinase inh 8.1, HSV replic up inactive, RGS16-Gao HTS 175.1, Insulin prom inh 23.5, Insulin prom inh cell count 55.6 and HSV replic up primary fold 0.93.
For Cc1nc2nc(SCC(=O)NCc3ccco3)nn2c(C)c1Cc1ccccc1 the results were GALR2 ag 0.1, PKD1 kinase inh 0.2, RGS16-Gao HTS 94.3, Insulin prom inh 16.2 and Insulin prom inh cell count 129.4.
O=C(Nc1ccccc1F)c1ccc(COc2ccc(Cl)cc2Cl)o1 was read as GALR2 ag -0.9, PKD1 kinase inh 3.4, HSV replic up inactive, RGS16-Gao HTS 106.0, Insulin prom inh -10.0, Insulin prom inh cell count 114.3 and HSV replic up primary fold 1.
For CSc1nc(N)c(C(=O)NC2CCCCC2)s1 the results were HSV replic up inactive, RGS16-Gao HTS 123.9 and HSV replic up primary fold 0.93.
COc1cccc(NC(=O)C2C3C=CC4(O3)C2C(=O)N(C(C)C)C4C(=O)NC2CCCCC2C)c1 (stereo unspecified) was read as GALR2 ag -0.2, PKD1 kinase inh 6.9, HSV replic up inactive, RGS16-Gao HTS 101.0, Insulin prom inh 53.5, Insulin prom inh cell count 121.6 and HSV replic up primary fold 0.907.
c1ccc(C(c2c[nH]c3ccccc23)c2c[nH]c3ccccc23)nc1 was read as GALR2 ag 0.0, PKD1 kinase inh -2.4, HSV replic up inactive, RGS16-Gao HTS 109.5, Insulin prom inh 17.9, Insulin prom inh cell count 124.3 and HSV replic up primary fold 0.78.

Quoted at random: 3 records from the list.
O=C(Nc1ccccc1F)c1ccc(COc2ccc(Cl)cc2Cl)o1 was read as GALR2 ag -0.9, PKD1 kinase inh 3.4, HSV replic up inactive, RGS16-Gao HTS 106.0, Insulin prom inh -10.0, Insulin prom inh cell count 114.3 and HSV replic up primary fold 1.
C[C@@H]1CC[C@@]2(O[C@H](CCO)C[C@@H](O)[C@@H]2O)O1 was read as GALR2 ag -0.6, PKD1 kinase inh -4.6, HSV replic up inactive, RGS16-Gao HTS 102.3 and HSV replic up primary fold 0.95.
For Cc1nc2nc(SCC(=O)NCc3ccco3)nn2c(C)c1Cc1ccccc1 the results were GALR2 ag 0.1, PKD1 kinase inh 0.2, RGS16-Gao HTS 94.3, Insulin prom inh 16.2 and Insulin prom inh cell count 129.4.

The list goes on:
Screening CCn1nc(C)c(/C=N/NC(=O)Cn2nccc2C)c1C returned GALR2 ag -0.5, PKD1 kinase inh -10.9, HSV replic up inactive, RGS16-Gao HTS 101.1, Insulin prom inh -3.3, Insulin prom inh cell count 89.5 and HSV replic up primary fold 1.09.
Screening Brc1ccc(-n2cccc2/C=N/n2cnnc2)cc1 returned GALR2 ag -2.0, PKD1 kinase inh 7.6, HSV replic up inactive, RGS16-Gao HTS 97.6 and HSV replic up primary fold 0.97.
For COc1cc(C)c(Cl)cc1S(=O)(=O)NCCN1CCOCC1 the results were GALR2 ag -0.1, PKD1 kinase inh -5.0, HSV replic up inactive, RGS16-Gao HTS 97.7, Insulin prom inh 13.0, Insulin prom inh cell count 134.7 and HSV replic up primary fold 0.97.
For CN(CCOCCOc1ccc2ccccc2c1)Cc1ccccc1 the results were GALR2 ag -0.8, PKD1 kinase inh 3.8, HSV replic up inactive, RGS16-Gao HTS 128.4, Insulin prom inh -43.3, Insulin prom inh cell count 26.3 and HSV replic up primary fold 0.85.
`COc1ccc(C2C(C#N)=C(SCC(=O)Nc3ccc(C)cc3)NC3=C2C(=O)CC(C)(C)C3)cc1` (stereo unspecified) gave GALR2 ag -0.1, PKD1 kinase inh -3.7, HSV replic up inactive, RGS16-Gao HTS 120.1, Insulin prom inh -2.3, Insulin prom inh cell count 160.0 and HSV replic up primary fold 0.98.
`NS(=O)(=O)c1ccc(CCNC(=O)CNS(=O)(=O)c2cccc(Br)c2)cc1` gave PKD1 kinase inh -9.3, HSV replic up inactive, RGS16-Gao HTS 101.4 and HSV replic up primary fold 0.68.
Screening COc1ccc(CN(C(=O)CSc2nnc(-c3c[nH]c4ccccc34)o2)c2ccc(F)cc2)cc1OC returned GALR2 ag -1.1, PKD1 kinase inh 2.3, HSV replic up inactive, RGS16-Gao HTS 98.8, Insulin prom inh -53.9, Insulin prom inh cell count 66.4 and HSV replic up primary fold 0.857.
`COc1cccc2cc(-c3nc4ccccc4o3)c(=O)oc12` gave PKD1 kinase inh 8.5, HSV replic up inactive, RGS16-Gao HTS 102.3, Insulin prom inh 23.1, Insulin prom inh cell count 122.4 and HSV replic up primary fold 0.91.
Screening CC1CN(C(=O)COC(=O)c2cc(Cl)ccc2Cl)CC(C)O1 (stereo unspecified) returned PKD1 kinase inh -0.7, HSV replic up inactive, RGS16-Gao HTS 97.6 and HSV replic up primary fold 1.05.
Screening COc1ccc(-c2cc(=O)c3ccccc3o2)cc1 returned HSV replic up inactive, RGS16-Gao HTS 66.7 and HSV replic up primary fold 0.97.
Screening CN(C)/C=C(\C#N)C(=O)N/N=C(\CC(=O)C(F)(F)F)c1ccco1 returned PKD1 kinase inh -0.1, HSV replic up inactive, RGS16-Gao HTS 100.4 and HSV replic up primary fold 1.19.
`Cc1ccc(NS(=O)(=O)c2cc(NC(=O)c3ccc4c(c3)NC(=O)CS4)ccc2Cl)c(C)c1` gave PKD1 kinase inh 4.5, HSV replic up inactive, RGS16-Gao HTS 85.4, Insulin prom inh 44.4, Insulin prom inh cell count 37.2 and HSV replic up primary fold 0.94.
`Cc1ccc(S(=O)(=O)c2c(C)nn(-c3ccccc3)c2OC(=O)c2ccco2)cc1` gave GALR2 ag -0.4, PKD1 kinase inh -2.9, HSV replic up inactive, RGS16-Gao HTS 100.5 and HSV replic up primary fold 0.81.
Screening Cc1ccc(OCC(=O)N/N=C/c2ccco2)cc1 returned GALR2 ag -2.5, PKD1 kinase inh -2.5, HSV replic up inactive, RGS16-Gao HTS 101.1, Insulin prom inh -32.3, Insulin prom inh cell count 83.6 and HSV replic up primary fold 1.14.
Screening O=S(=O)(N/N=C\c1ccc2c(c1)OCO2)c1ccc(Cl)cc1 returned GALR2 ag -3.3, PKD1 kinase inh -3.9, HSV replic up inactive, RGS16-Gao HTS 95.5, Insulin prom inh -20.8, Insulin prom inh cell count 112.0 and HSV replic up primary fold 0.97.
Screening CCOc1ccc(NC(=O)c2cccc3c2C(=O)N(Cc2cccnc2)C3)cc1 returned GALR2 ag 1.5, PKD1 kinase inh 0.1, HSV replic up inactive, RGS16-Gao HTS 95.2, Insulin prom inh -18.5, Insulin prom inh cell count 132.6 and HSV replic up primary fold 0.763.
Screening C/C(=N\NC(=S)NC1CCCCC1)c1cccc(C(F)(F)F)c1 returned HSV replic up inactive, RGS16-Gao HTS 111.8 and HSV replic up primary fold 0.9.
Screening O=C(CSc1ccccn1)C12CC3CC(CC(C3)C1)C2 returned PKD1 kinase inh -5.2, HSV replic up inactive, RGS16-Gao HTS 100.2, Insulin prom inh -5.9, Insulin prom inh cell count 121.5 and HSV replic up primary fold 1.07.
`Cc1nn(-c2ccccc2)c2sc(C(=O)NNC(=O)COc3cccc4ccccc34)cc12` gave GALR2 ag -2.1, PKD1 kinase inh -15.8, HSV replic up inactive, RGS16-Gao HTS 102.1, Insulin prom inh 6.7, Insulin prom inh cell count 102.3 and HSV replic up primary fold 0.55.
CC1CCN(S(=O)(=O)c2ccc(C(=O)Nc3nnc(-c4ccccn4)o3)cc2)CC1 was read as PKD1 kinase inh -0.4, HSV replic up inactive, RGS16-Gao HTS 97.3, Insulin prom inh -136.4, Insulin prom inh cell count 93.2 and HSV replic up primary fold 1.
`COc1cc(NC(=O)CSc2nccc(=O)[nH]2)c(C)cc1[N+](=O)[O-]` gave PKD1 kinase inh 0.0, HSV replic up inactive, RGS16-Gao HTS 95.2 and HSV replic up primary fold 0.98.
`COc1ccc2c(c1)C1=C(CC2)C(c2ccc(C)cc2)NC(=S)N1` (stereo unspecified) gave PKD1 kinase inh 5.3, HSV replic up inactive, RGS16-Gao HTS 94.2, Insulin prom inh -28.6, Insulin prom inh cell count 110.5 and HSV replic up primary fold 0.95.
COc1cc(C2C(C#N)=C(N)N(c3cccnc3)C3=C2C(=O)CCC3)ccc1O (stereo unspecified) was read as GALR2 ag -2.2, PKD1 kinase inh -3.8, HSV replic up inactive, RGS16-Gao HTS 99.5, Insulin prom inh -30.9, Insulin prom inh cell count 81.2 and HSV replic up primary fold 0.96.
For COc1ccc(CN(C(=S)Nc2ccccc2)C2CC(=O)N(c3ccc(F)cc3)C2=O)cc1 (stereo unspecified) the results were GALR2 ag -2.5, PKD1 kinase inh 7.2, HSV replic up inactive, RGS16-Gao HTS 109.4, Insulin prom inh 0.0, Insulin prom inh cell count 72.3 and HSV replic up primary fold 0.92.
O=C(O)/C=C/C(=O)Nc1ccc2nccnc2c1 was read as PKD1 kinase inh 4.5, HSV replic up inactive, RGS16-Gao HTS 99.8 and HSV replic up primary fold 1.04.
Screening O=C(c1ccc([N+](=O)[O-])cc1)N(Cc1ccc(Cl)cc1)N1C(=O)CCCC1=O returned GALR2 ag -1.7, PKD1 kinase inh -5.5, HSV replic up inactive, RGS16-Gao HTS 108.2, Insulin prom inh -16.7, Insulin prom inh cell count 111.7 and HSV replic up primary fold 0.75.
